High-throughput results (PubChem)
FGF22 binding: FGF22 (human) thermal shift binding; recombinant FGF22 thermal shift, SYPRO orange fluorescence; percent of sucrose octasulfate shift, DMSO zero; AID 651658; calls only at 9.99 µM; actives 1.5% (n = 340,000); Q9HCT0;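 active means melting point raised past a set limit in the mean and every replicate; three in four hits are not shown here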
Target sequence (Q9HCT0 whole entry, looked up): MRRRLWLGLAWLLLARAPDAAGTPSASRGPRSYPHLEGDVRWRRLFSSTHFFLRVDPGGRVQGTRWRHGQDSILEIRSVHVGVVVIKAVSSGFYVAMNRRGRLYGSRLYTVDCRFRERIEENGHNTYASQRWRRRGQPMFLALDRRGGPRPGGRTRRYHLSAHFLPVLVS
AF4-AF9 inh: MLL-AF4/AF9 protein interaction inhibition; P42568; AlphaScreen, biotin-AF4 peptide binding to FLAG-AF9; inhibition, % at 10 µM; actives 0.47% (n = 350,000);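 active means every replicate reaching a set inhibition limit, whatever the replicate mean, cut at about 25% in these data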;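 further: 0% = plate neutral control median and 100% = total signal loss; the record names both 10 and 1 µM as test concentration; the first replicate is given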
Target sequence (P42568 whole entry, looked up): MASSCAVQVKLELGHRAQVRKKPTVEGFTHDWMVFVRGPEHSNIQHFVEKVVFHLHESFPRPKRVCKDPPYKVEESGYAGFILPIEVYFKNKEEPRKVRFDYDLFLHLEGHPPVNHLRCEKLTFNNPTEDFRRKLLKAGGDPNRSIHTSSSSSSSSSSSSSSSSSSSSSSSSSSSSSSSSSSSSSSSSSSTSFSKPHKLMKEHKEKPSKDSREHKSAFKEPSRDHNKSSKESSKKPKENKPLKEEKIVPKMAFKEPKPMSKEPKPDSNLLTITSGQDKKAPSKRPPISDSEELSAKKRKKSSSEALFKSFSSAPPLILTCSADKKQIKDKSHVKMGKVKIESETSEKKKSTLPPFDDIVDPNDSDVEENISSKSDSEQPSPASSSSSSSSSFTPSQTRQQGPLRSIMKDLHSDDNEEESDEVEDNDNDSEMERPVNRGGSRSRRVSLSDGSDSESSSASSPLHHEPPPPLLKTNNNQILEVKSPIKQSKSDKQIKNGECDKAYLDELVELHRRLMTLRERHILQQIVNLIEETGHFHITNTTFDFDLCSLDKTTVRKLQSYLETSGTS
Numbers without * were called inactive; i = inactive. A portion of the library; rates above refer to the full screens.

SMILES | FGF22 binding | AF4-AF9 inh
N#C[C@@H]1[C@H](c2ccccc2)[C@@H](CO)N1C(=O)Cc1ccccn1 | i | -0.4
CN(C)CC(=O)Nc1ccc2c(c1)[C@H]1C[C@@H](CC(=O)N3CCc4ccccc4C3)O[C@H](CO)[C@H]1O2 | i | 2.4
O=C(Nc1ccccc1F)N[C@@H]1CC[C@H](CCNS(=O)(=O)c2ccc(F)cc2)O[C@H]1CO | i | -7.3
C=CCN=C1NC(c2ccc(C(F)(F)F)cc2)C(C(=O)OC)=C(C)N1C (configuration not stated) | i | 1.8
O=C(NC[C@H]1[C@H](c2ccccc2)[C@@H](CO)N1CC1CC1)C1CC1 | i | -2.6
COc1ccc(S(=O)(=O)N(C)C[C@@H]2OCCCC[C@@H](C)Oc3ccc(NS(=O)(=O)c4cn(C)cn4)cc3C(=O)N([C@@H](C)CO)C[C@H]2C)cc1 | i | 2.3
COc1cccc(C#Cc2ccc([C@@H]3[C@H](CO)N4C(=O)CN(C(=O)c5ccccc5)C[C@@H]34)cc2)c1 | i | -1.9
C[C@@H]1CCCCO[C@@H](CN(C)Cc2ccncc2)[C@@H](C)CN([C@H](C)CO)C(=O)c2cc(NC(=O)Nc3ccc4c(c3)OCO4)ccc2O1 | i | -1.1
C/C=C/c1ccc([C@H]2[C@@H](CO)N(Cc3cncnc3)C23CN(C(C)=O)C3)cc1 | i | -2.6
COCC(=O)N1CC[C@@H]2[C@H]1c1cc(C#Cc3cccc(F)c3)ccc1N[C@@H]2CO | i | 0.9
C[C@@H]1CCCCO[C@@H](CN(C)C(=O)c2ccccc2)[C@H](C)CN([C@H](C)CO)C(=O)c2cc(NC(=O)Cc3ccccc3)ccc2O1 | i | 1.2
C[C@H](CO)N1C[C@H](C)[C@H](CN(C)S(C)(=O)=O)Oc2ccc(NS(=O)(=O)c3cn(C)cn3)cc2CC1=O | i | -2.9
OC[C@@H]1[C@H]2c3ccccc3NC[C@H]2N1CC1CCCCC1 | i | 1.5
COc1ccc(S(=O)(=O)Nc2ccc3c(c2)C(=O)N([C@@H](C)CO)C[C@@H](C)[C@@H](CN(C)C(=O)NC2CCCCC2)O3)cc1 | i | -2.3
O=C(Cc1ccccn1)N[C@H]1CC[C@@H](CCn2cc(-c3cccnc3)nn2)O[C@H]1CO | i | 0.3
COc1cccc(S(=O)(=O)N(C)C[C@@H]2Oc3cc(C4=CCCC4)ccc3S(=O)(=O)N([C@H](C)CO)C[C@@H]2C)c1 | i | 1.3
C[C@H]1CN([C@@H](C)CO)C(=O)c2cc(C#Cc3ccncc3)cnc2O[C@@H]1CN(C)S(=O)(=O)c1ccccc1F | i | -1.2
Cc1noc(C)c1S(=O)(=O)N(C)C[C@@H]1Oc2ccc(NC(=O)C3CC3)cc2CC(=O)N([C@@H](C)CO)C[C@H]1C | i | -1.2
CC(C)NC(=O)N(C)C[C@H]1Oc2ccc(NC(=O)Nc3ccc(C(F)(F)F)cc3)cc2C(=O)N([C@@H](C)CO)C[C@@H]1C | i | -1.8
COc1ccc2c3c([nH]c2c1)[C@@H](CO)N(C(=O)NC(C)C)CC31CCN(Cc2ccc(F)cc2)CC1 | i | 17
C[C@@H]1CN([C@H](C)CO)C(=O)c2cc(NC(=O)Cn3cnnn3)ccc2O[C@H]1CN(C)S(C)(=O)=O | i | -1.2
C[C@@H]1CN([C@H](C)CO)C(=O)Cc2cc(NS(=O)(=O)c3cccs3)ccc2O[C@@H]1CN(C)C(=O)Nc1ccc(F)cc1 | i | 1.0
CC(C)(C)[C@@H]1C=C(C(=O)N2CCCC2)O[C@H](OCc2ccc(CO)cc2)C1 | i | -1.7
Cc1ccc(S(=O)(=O)N(C)C[C@@H]2OCc3ccccc3-c3ccccc3C(=O)N([C@H](C)CO)C[C@H]2C)cc1 | i | 15
Cc1noc(C)c1NC(=O)N(C)C[C@H]1Oc2ccc(NC(=O)NC(C)C)cc2CC(=O)N([C@@H](C)CO)C[C@@H]1C | i | -11
Cc1noc(C)c1S(=O)(=O)Nc1ccc2c(c1)C(=O)N([C@@H](C)CO)C[C@H](C)[C@H](CN(C)Cc1ccc(C(F)(F)F)cc1)OCCCC[C@@H](C)O2 | i | -0.8
C[C@@H]1CCCCO[C@@H](CN(C)C)[C@H](C)CN([C@@H](C)CO)C(=O)c2cc(NS(=O)(=O)c3ccccc3)ccc2O1 | i | -4.9
COCC(=O)Nc1ccc2c(c1)C(=O)N(C)C[C@H](OC)[C@H](C)CN(Cc1cc(F)ccc1F)[C@H](C)CO2 | i | 4.0
C[C@@H]1CN([C@H](C)CO)C(=O)Cc2cc(NS(=O)(=O)c3ccccc3)ccc2O[C@@H]1CN(C)Cc1ccccc1 | i | 1.7
C[C@H]1CN([C@@H](C)CO)C(=O)c2cccc(NC(=O)Nc3ccc(F)cc3)c2O[C@@H]1CN(C)C(=O)Nc1ccc(C(F)(F)F)cc1 | i | -7.6
CC(C)NC(=O)N[C@H]1CC[C@H](CCNC(=O)C2CCC2)O[C@@H]1CO | i | 0.4
COc1ccc(CN(C)C[C@H]2OCCCC[C@H](C)Oc3ccc(NS(=O)(=O)c4ccc(Cl)cc4)cc3C(=O)N([C@H](C)CO)C[C@@H]2C)cc1 | i | 5.0
COc1ccc(CN(C)C[C@@H]2Oc3c(NC(=O)Nc4c(C)noc4C)cccc3C(=O)N([C@@H](C)CO)C[C@@H]2C)cc1 | i | -2.6
COc1ccc(S(=O)(=O)N(C)C[C@H]2Oc3c(NC(=O)c4nc5ccccc5s4)cccc3C(=O)N([C@@H](C)CO)C[C@H]2C)cc1 | i | 2.6
C[C@H]1CN([C@@H](C)CO)C(=O)c2cc(NC(=O)Cn3cnnn3)ccc2O[C@@H]1CN(C)Cc1ccncc1 | i | 0.4
CC(C)OC(=O)N(C)C[C@@H]1OCc2ccccc2-c2ccccc2C(=O)N([C@@H](C)CO)C[C@@H]1C | i | -4.8
C[C@@H]1CN([C@H](C)CO)C(=O)c2cc(NC(=O)Cc3cn(C)c4ccccc34)ccc2O[C@H]1CN(C)C(=O)Nc1cccc2ccccc12 | i | -0.7
CCCC(=O)Nc1ccc2c(c1)OC[C@H](C)N(CC1CCOCC1)C[C@@H](C)[C@H](OC)CN(C)C2=O | i | -2.4
COc1ccc(S(=O)(=O)N(C)C[C@@H]2OCCCC[C@@H](C)Oc3ccc(NS(=O)(=O)c4c(C)noc4C)cc3C(=O)N([C@@H](C)CO)C[C@@H]2C)cc1 | i | -0.6
CO[C@@H]1CN(C)C(=O)c2ccc(NC(=O)Nc3ccccc3)cc2OC[C@H](C)N(C(=O)Nc2c(C)noc2C)C[C@H]1C | i | 1.5
COc1ccc(S(=O)(=O)Nc2ccc3c(c2)OC[C@@H](C)NC[C@H](C)[C@H](OC)CN(C)C3=O)cc1 | i | -4.2
CC(C)C#Cc1cnc2c(c1)C(=O)N([C@H](C)CO)C[C@H](C)[C@H](CN(C)C(=O)Nc1ccc(F)cc1)O2 | i | 3.4
C[C@@H]1CN([C@@H](C)CO)C(=O)c2cc(-c3ccccc3F)cnc2O[C@H]1CN(C)C(=O)NC1CCCCC1 | i | -0.5
CC(=O)N1[C@H](C(=O)N[C@H](C)c2ccccc2)[C@@H](CO)[C@@H]2Cn3c(cccc3=O)[C@@H]21 | i | -0.3
CCC(=O)N(C)C[C@@H]1Oc2ncc(-c3ccccc3OC)cc2C(=O)N([C@H](C)CO)C[C@H]1C | i | -4.0
C[C@H]1CN([C@@H](C)CO)C(=O)c2cc(NS(=O)(=O)c3cn(C)cn3)ccc2O[C@@H]1CN(C)S(=O)(=O)c1cccs1 | i | -0.2
Cc1ccccc1-c1ccc([C@H]2[C@@H](CO)N3CCCCN(C(=O)Nc4ccccc4)C[C@H]23)cc1 | i | 4.7
O=C(C[C@@H]1CC[C@H](NC(=O)Nc2ccccc2F)[C@H](CO)O1)NCc1ccccc1 | i | -0.3
CC(C)c1cn(CC[C@@H]2CC[C@H](NC(=O)C3CCCCC3)[C@@H](CO)O2)nn1 | i | -4.0
Cc1noc(C)c1S(=O)(=O)Nc1ccc2c(c1)C(=O)N([C@H](C)CO)C[C@@H](C)[C@@H](CN(C)CC1CC1)O2 | i | -0.5
More structures:
SMILES | FGF22 binding | AF4-AF9 inh
CCC(=O)Nc1ccc2c(c1)C(=O)N(C)[C@H]1CC[C@H](CC(=O)N3CCc4ccccc4C3)O[C@H]1CO2 | i | -0.4
COc1ccc(S(=O)(=O)Nc2ccc3c(c2)[C@H]2C[C@@H](CC(=O)NCC4CC4)O[C@@H](CO)[C@H]2O3)cc1 | i | -0.4
CCC(=O)N(C)C[C@H]1Oc2cc(Br)ccc2S(=O)(=O)N([C@@H](C)CO)C[C@@H]1C | i | -1.4
COC(=O)C[C@@H]1CC[C@@H]2[C@H](COc3ccc(NC(=O)Cc4cccs4)cc3C(=O)N2C)O1 | i | -0.6
C[C@@H]1CN([C@H](C)CO)C(=O)c2cc(NS(=O)(=O)c3cccs3)ccc2O[C@@H](C)CCCCO[C@@H]1CN(C)S(=O)(=O)c1ccc(F)cc1 | i | 1.0
CC(C)C(=O)Nc1ccc2c(c1)C(=O)N(C)[C@H]1CC[C@H](CC(=O)Nc3ccccc3)O[C@@H]1CO2 | i | -2.7
COc1ccc(CN(C)C[C@@H]2OCCCC[C@@H](C)Oc3ccc(NS(=O)(=O)c4ccc(F)cc4)cc3C(=O)N([C@@H](C)CO)C[C@H]2C)cc1 | i | 2.5
COCC(=O)NC[C@@H]1N[C@@H](CO)[C@H]1c1ccc(C2=CCCCC2)cc1 | i | 6.6
Cc1noc(C)c1S(=O)(=O)Nc1ccc2c(c1)C(=O)N([C@@H](C)CO)C[C@H](C)[C@@H](CN(C)S(=O)(=O)c1cn(C)cn1)OCCCC[C@@H](C)O2 | i | 1.7
C[C@H](CO)N1C[C@H](C)[C@H](CN(C)C(=O)Nc2ccc(F)cc2)Oc2ccc(N(C)C)cc2C1=O | i | 2.1
Cc1ccc(S(=O)(=O)N(C)C[C@H]2Oc3ccc(NC(=O)Nc4cccc5ccccc45)cc3CC(=O)N([C@@H](C)CO)C[C@H]2C)cc1 | i | 2.2
O=C(C[C@@H]1C[C@@H]2c3cc(NC(=O)Nc4ccc(C(F)(F)F)cc4)ccc3O[C@@H]2[C@@H](CO)O1)NCCc1ccccc1 | i | -0.6
CO[C@@H]1CN(C)C(=O)c2ccc(NS(=O)(=O)c3cccc(Cl)c3)cc2OC[C@@H](C)N(C(=O)Cc2cccnc2)C[C@H]1C | i | 3.6
CCS(=O)(=O)N1CCCCN2[C@@H](CO)[C@@H](c3ccc(C#CC(C)(C)O)cc3)[C@@H]2C1 | i | -7.3
COCC(=O)N1[C@@H](CO)[C@@H]2c3ccccc3N(C(=O)c3cccnc3)C[C@@H]21 | i | -3.4
CC(C)NC(=O)Nc1ccc2c(c1)C(=O)N([C@@H](C)CO)C[C@H](C)[C@@H](CN(C)C(=O)CCCN(C)C)OCCCC[C@H](C)O2 | i | -2.3
CN1C(=O)c2cc(NC(=O)Nc3ccc(F)cc3)ccc2OC[C@H]2O[C@@H](CC(=O)NC3CCC3)CC[C@@H]21 | i | -1.5
C[C@@H]1CN([C@H](C)CO)C(=O)c2cc(NS(=O)(=O)c3ccc(Cl)cc3)ccc2O[C@H]1CN(C)C(=O)Nc1ccc2c(c1)OCO2 | i | 0.7
O=C(O)C[C@H]1C[C@H]2c3cc(NC(=O)Nc4ccccc4F)ccc3O[C@H]2[C@H](CO)O1 | i | -1.7
COC(=O)c1cc2c(c3c4cc(C)ccc4n(S(=O)(=O)c4ccc(C)cc4)c13)C(=O)N(Cc1ccccc1)C2 | i | -1.4

Part of the list above, in CSV form.
canonical_smiles,FGF22 binding,AF4-AF9 inh
C[C@H]1CN([C@@H](C)CO)C(=O)c2cc(NS(=O)(=O)c3cn(C)cn3)ccc2O[C@@H]1CN(C)S(=O)(=O)c1cccs1,i,-0.2
COc1ccc(S(=O)(=O)Nc2ccc3c(c2)[C@H]2C[C@@H](CC(=O)NCC4CC4)O[C@@H](CO)[C@H]2O3)cc1,i,-0.4
COc1cccc(C#Cc2ccc([C@@H]3[C@H](CO)N4C(=O)CN(C(=O)c5ccccc5)C[C@@H]34)cc2)c1,i,-1.9
Cc1noc(C)c1S(=O)(=O)Nc1ccc2c(c1)C(=O)N([C@@H](C)CO)C[C@H](C)[C@H](CN(C)Cc1ccc(C(F)(F)F)cc1)OCCCC[C@@H](C)O2,i,-0.8
CC(C)C(=O)Nc1ccc2c(c1)C(=O)N(C)[C@H]1CC[C@H](CC(=O)Nc3ccccc3)O[C@@H]1CO2,i,-2.7
CO[C@@H]1CN(C)C(=O)c2ccc(NS(=O)(=O)c3cccc(Cl)c3)cc2OC[C@@H](C)N(C(=O)Cc2cccnc2)C[C@H]1C,i,3.6
N#C[C@@H]1[C@H](c2ccccc2)[C@@H](CO)N1C(=O)Cc1ccccn1,i,-0.4

(next part)
SMILES | FGF22 binding | AF4-AF9 inh
C[C@@H]1CCCCO[C@H](CN(C)Cc2ccc(C(=O)O)cc2)[C@H](C)CN([C@@H](C)CO)C(=O)c2cc(NC(=O)Cc3ccccc3)ccc2O1 | i | 2.7
COc1cccc(C#Cc2cnc3c(c2)C(=O)N([C@H](C)CO)C[C@H](C)[C@H](CN(C)C(C)=O)O3)c1 | i | -2.9
COc1ccc(S(=O)(=O)N[C@@H]2CC[C@H](CC(=O)N3CCc4ccccc4C3)O[C@H]2CO)cc1 | i | -0.3
COCC(=O)NC[C@H]1[C@H](c2ccccc2)[C@@H](CO)N1C(=O)c1ccccc1 | i | -1.1
CN1NC(=O)c2ccccc2NC1=S | i | 7.6
Cc1noc(C)c1NC(=O)N(C)C[C@@H]1Oc2ccc(NS(=O)(=O)c3ccc(Cl)cc3)cc2CC(=O)N([C@@H](C)CO)C[C@@H]1C | i | -3.0
